# Compound activity from PubChem BioAssay.
# VDR inh: Inhibitors of the vitamin D receptor (VDR): qHTS; Vitamin D3 receptor (Homo sapiens), P11473; VDR-SRC2-3 peptide fluorescence polarization, 2 h; Potency, µM, for the others: max response, negative = inhibition, usual class: inhibitors; 400,000 tested, 0.93% active; active = well fitted inhibition curve with a large enough effect; inconclusive = small, poorly fitted or top-dose-only effect, or another doubt; inactive = no such curve, though single readings can be large or run the other way; note: series mostly up to about 120 µM
# Target sequence (P11473 whole entry, looked up): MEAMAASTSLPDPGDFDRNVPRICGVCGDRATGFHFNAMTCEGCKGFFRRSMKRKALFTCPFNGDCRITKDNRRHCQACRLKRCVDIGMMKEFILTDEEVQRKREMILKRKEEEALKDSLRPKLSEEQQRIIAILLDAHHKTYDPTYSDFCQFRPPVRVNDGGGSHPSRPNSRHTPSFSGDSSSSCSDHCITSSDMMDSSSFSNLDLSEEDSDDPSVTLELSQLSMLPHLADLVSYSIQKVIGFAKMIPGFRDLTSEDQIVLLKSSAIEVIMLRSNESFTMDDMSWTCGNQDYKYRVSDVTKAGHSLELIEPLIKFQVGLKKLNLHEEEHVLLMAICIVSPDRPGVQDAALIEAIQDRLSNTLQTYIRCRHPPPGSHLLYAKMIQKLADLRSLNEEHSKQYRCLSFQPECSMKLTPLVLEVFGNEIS
#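 Two reagent solutions held at 4 deg C in the dark were dispensed, compounds pinned at 23 nl, and the mixture incubated 2 h at room temperature. Read-out: fluorescence polarization of VDR–SRC2-3 peptide binding.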
# The depositor's hits bear a star; ? = inconclusive; & = joins results of further samples; [ ] = remark or other dose. % is set by controls: 0 for no effect and ±100 for the full control effect; potency is the fitted concentration of half-maximal effect. This is a subset. The share of hits here may be higher or lower than overall.
SMILES,VDR inh
CCc1ccc(-n2nc(C)c3c(C(=O)N4CCN(c5cccc(Cl)c5)CC4)cc(C)nc32)cc1,7.1%
Cc1cccc(S(=O)(=O)N2CCCc3ccccc32)c1,3.3%
Cc1ccc(C(=O)N/C(=C\c2ccc(-c3ccc(Cl)cc3)o2)C(=O)NCCCN(C)C)cc1,1.2%
CC1=C(C(=O)OC(C)C)C(c2ccccc2)NC(=S)N1C (stereo unspecified),4.0%
Cc1noc(C)c1COc1ccc(C(=O)NCCc2ccc(F)cc2)cc1,-6.8%
Cc1cc(S(=O)(=O)Nc2ccc(C(=O)N3CCN(C(=O)c4ccco4)CC3)cc2)ccc1F,-0.2%
CC(/C=C/c1ccco1)=N\NC(=O)COc1ccc(C)c(C)c1,-19.8%
COc1ccccc1Oc1nc(-c2ccccc2)cc(C)c1S(C)(=O)=O,9.8%
CCCn1c(=N)n(CC(=O)C(C)(C)C)c2ccccc21,13.3%
O=C1CCCC2=C1C(c1ccc(Cl)cc1)n1c(s/c(=C\c3ccc4ccncc4c3)c1=O)=N2 (stereo unspecified),-24.4%
CCC(=O)NC(NC(=S)Nc1ccc(S(N)(=O)=O)cc1)C(Cl)(Cl)Cl (stereo unspecified),3.5%
CCOC(=O)c1sc(NC(=O)c2cc3nc(-c4ccccc4)cc(C(F)(F)F)n3n2)c(C(=O)OCC)c1C,6.8%
FC(F)(F)c1ccc(Cl)c(NC(=S)N/N=C/c2ccccc2C(F)(F)F)c1,-4.6%
Cc1cccc(-c2noc(-c3cc(-c4ccc(F)cc4)n[nH]3)n2)c1,-2.6%
O=C(O)C1Cc2ccccc2CN1C(=O)CCl (stereo unspecified),-8.9%
C=CCn1c(P(=O)(O)c2ccccc2)nc2ccccc21,-26.2%
COc1ccc([C@H]2CC(=O)C=C(/C=C/Cc3ccccc3)C2)cc1,79.4µM*
Cc1nc(CNC(=O)C2CCC(=O)N(Cc3cccc(F)c3)C2)sc1C (stereo unspecified),-4.3%
NC(=O)C1CCCN(C(=O)NC2CCCCC2)C1 (stereo unspecified),33.2%[activator]
O=S(=O)(Nc1ccc2c(c1)OCCO2)c1cccc2nsnc12,-10.8%
O=[N+]([O-])c1cc(-c2csc(NCCc3nc4cc(Cl)c(N5CCCCC5)cc4n3CCCO)n2)ccc1Cl,3.1%
CCN(CC(=O)Nc1c(F)cccc1F)C(=O)c1ccc(C#N)cc1,2.4%
CC[C@H](C)[C@H](NC(N)=O)C(=O)OCC(=O)NCc1ccc(Cl)cc1,-12.5%
O=C(Nc1ccc(Cl)cc1)Nc1cc(S(=O)(=O)N2CCOCC2)ccc1N1CCCC1,-4.0%
CCOc1ccccc1NCc1cc(=O)oc2cc(C)c(O)cc12,16.0%
Cc1cc(=O)oc2c3c(cc(OCC(=O)N[C@@H](C)C(=O)O)c12)OC(C)(C)CC3,20.6%
CCOC(=O)CC1C(=O)NCCN1C(=O)COc1ccc(Br)cc1C (stereo unspecified),-16.3%
OC[C@H]1OC(O)C[C@@H](O)[C@@H]1O (stereo partly specified),-1.3%
COc1ccc(/C=C/C(=O)c2c(C)cc(C)[nH]c2=O)c2ccccc12,?
O=c1[nH]c(Cc2ccccc2)nc2scc(-c3ccccc3)c12,-10.2%

# Arranged by value in VDR inh (ascending): four of the compounds above
SMILES,VDR inh
Cc1nc(CNC(=O)C2CCC(=O)N(Cc3cccc(F)c3)C2)sc1C (stereo unspecified),-4.3%
Cc1cccc(-c2noc(-c3cc(-c4ccc(F)cc4)n[nH]3)n2)c1,-2.6%
CCC(=O)NC(NC(=S)Nc1ccc(S(N)(=O)=O)cc1)C(Cl)(Cl)Cl (stereo unspecified),3.5%
CCCn1c(=N)n(CC(=O)C(C)(C)C)c2ccccc21,13.3%

# Next results follow:
SMILES,VDR inh
Cc1cc(C)n(-c2ccc(C(=O)OCC(=O)Nc3ccc([N+](=O)[O-])cc3)cc2)n1,-7.3%
Cc1ccc(Cl)cc1N1CCN(C(=O)c2cn(C)c3ccc(S(=O)(=O)N4CCC(C)CC4)cc3c2=O)CC1,-6.1%
COc1ccc(/C=C/C2=NNC(=O)CC2)cc1,3.2%
CN1CCc2c(sc3c2C(=O)NC(c2ccc(OC(=O)c4ccc(C(C)(C)C)cc4)cc2)N3)C1 (stereo unspecified),22.9%
CC(C)C[C@H](NC(=O)[C@H](CC(C)C)NC(=O)[C@H](Cc1ccccc1)NC(=O)[C@@H](N)CO)C(=O)N[C@@H](CCCN=C(N)N)C(=O)N[C@@H](CC(N)=O)C(=O)O,2.1%
CC(C)C(C(=O)Nc1nccs1)N1C(=O)c2ccccc2C1=O (stereo unspecified),-4.7%
Cc1sc2nc(CN(Cc3cccs3)C(=O)NC3CCCCC3)[nH]c(=O)c2c1C,3.7%
O=C(O)c1ccc(N2CC3CC(C2)c2cccc(=O)n2C3)c(NC(=S)Nc2ccc(Br)cc2)c1 (stereo unspecified),?
CC(=O)c1ccccc1Oc1nc(CN2CCOCC2)nc2scc(-c3cccs3)c12,-0.9%
CN(CC1COc2ccccc2O1)C(=O)c1ccc(N(C)C)cc1 (stereo unspecified),3.3%
O=C(c1cc2ccccc2o1)N1CCN=C1SCc1cccc(F)c1,-4.4%
Fc1cccc2sc(N3CCCCC3)nc12,-10.4%
CCCCCCCCSc1nnc(CSc2nc3nc(C)cc(C)n3n2)o1,-5.8%
Cc1csc(Sc2ccc(C(=O)OCC(=O)Nc3ccc(OC(F)(F)F)cc3)cc2[N+](=O)[O-])n1,7.0%
COc1ccccc1-c1sc2ccccc2c1C#Cc1ccc(N(C)C)cc1,-3.9%
Cc1ccc(NC(=O)COC(=O)Cc2ccc(Br)cc2)cc1S(=O)(=O)N1CCOCC1,1.5%
NC(=O)CSc1nc2c(sc3ccccc32)c(=O)n1CCCN1CCOCC1,5.9%
Cc1ccc(NC(=O)C2CCCN2C(=O)NC2CCCCC2)cc1C (stereo unspecified),-2.6%
Cc1ccc(CSc2nc3[nH]ncc3c(=O)[nH]2)cc1,-22.0%
Nc1c(Cl)cc(-c2csc(N3CCCC3c3nc4cc(Cl)c(Cl)cc4n3CCOCCO)n2)cc1Cl (stereo unspecified),-27.2%
COc1ccc(C2C3=C(CCCC3=O)Nc3nc(C(F)(F)F)nn32)cc1OC (stereo unspecified),4.4%
CCOC(=O)CNC(c1ccccc1)c1cc(Br)ccc1NC(C)=O (stereo unspecified),-0.2%
Cc1c(NC(=O)CN2CCN(c3cccc(Cl)c3)CC2)c(=O)n(-c2ccccc2)n1C,22.2%
COc1cccc(C(=O)Nc2c(C(=O)c3ccc(F)cc3)oc3ccccc23)c1,-8.4%
CCOC(=O)N1CCN(C(=O)CSC2=NS(=O)(=O)c3ccccc3N2)CC1,-6.9%
COC(=O)c1c(C)[nH]c(C)c1-c1ccc(C)cc1,11.1%
COc1ccc(NCc2cc3ccc(OC)cc3n(CC(=O)Nc3cc(Cl)ccc3C)c2=O)cc1,4.1%
O=C(NC1CCCC1)c1cc(-c2cccs2)on1,0.2%
CCCCNC(=O)CC(C(=O)N1CCc2ccccc21)n1ccnc1 (stereo unspecified),-4.6%
Cc1onc(-c2ccccc2Cl)c1C(=O)N1CCOC12CCCCC2,-2.3%

# Random excerpt: three records from the list.
SMILES,VDR inh
NC(=O)CSc1nc2c(sc3ccccc32)c(=O)n1CCCN1CCOCC1,5.9%
Cc1ccc(NC(=O)C2CCCN2C(=O)NC2CCCCC2)cc1C (stereo unspecified),-2.6%
Cc1c(NC(=O)CN2CCN(c3cccc(Cl)c3)CC2)c(=O)n(-c2ccccc2)n1C,22.2%

# The results go on:
SMILES,VDR inh
CCN1C(=O)N[C@H](c2ccccc2)C(C(C)=O)=C1C,-11.5%
Clc1ccc(N2CCN(c3nc4nonc4nc3N3CCSCC3)CC2)nc1,-5.7%
O=C(CSc1ncn(-c2ccccc2)n1)N1CCN(c2ccccc2)CC1,-15.8%
O=C(N/N=C/C=C/c1cccc([N+](=O)[O-])c1)c1ccncc1,-6.9%
CCOc1ccccc1OCCCC(=O)NNC(=O)c1cc(C)oc1C,-1.6%
CC(C)CCCC(C)C1CCC2C3CC(O)[C@@]4(O)CC(O)CC[C@@]4(C)C3CC[C@@]12C (stereo partly specified),2.3%
CC(=O)c1cccc(NC(=O)c2ccc3nc(C(C)C)oc3c2)c1,-6.7%
Cc1ccnn1CCC(=O)N1CCCC(CCC(=O)NCc2ccccc2F)C1 (stereo unspecified),5.3%
O=C(Nc1nc2ccc(C(=O)N3CCCCC3)cc2s1)C1CCCCC1,15.4%
CC(C)CC(/C(O)=C(\C#N)c1nc2ccccc2[nH]1)N1C(=O)c2ccccc2C1=O (stereo unspecified),-9.8%
COc1ccc(C(=O)N[C@H](C(=O)OCCCOC(=O)[C@@H](NC(=O)c2ccc(OC)cc2)C(C)C)C(C)C)cc1,-13.4%
O=C(CSc1cccc2cccnc12)Nc1cccc(S(=O)(=O)N2CCOCC2)c1,7.9%
COc1ccc(N)cc1S(=O)(=O)Nc1ccccc1Cl,-7.2%
COCCNC(=O)CN1CCC(NC(=O)Nc2ccccc2)CC1,6.8%
Cc1cc(Nc2ccccc2Cl)c2ccccc2n1,3.1%

# A second format for some results above.
Compound	VDR inh
CC(C)CC(/C(O)=C(\C#N)c1nc2ccccc2[nH]1)N1C(=O)c2ccccc2C1=O (stereo unspecified)	-9.8%
O=C(N/N=C/C=C/c1cccc([N+](=O)[O-])c1)c1ccncc1	-6.9%
Cc1cc(Nc2ccccc2Cl)c2ccccc2n1	3.1%

# (further entries)
SMILES,VDR inh
Cc1ccc(-c2cc3nc(-c4ccccc4)cc(N4CCC5(CC4)OCCO5)n3n2)cc1,11.0%
COC(=O)C1=C(C)N(Cc2ccccc2)C(=NCc2cc(OC)c(OC)c(OC)c2)N[C@H]1c1cccc(F)c1,-13.9%
O=c1sc2ccccc2c(N2CCN(c3ccccc3)CC2)c1[N+](=O)[O-],-2.3%
CCCC[n+]1ccn(C2=C([O-])c3ccccc3C(=O)/C2=N\S(=O)(=O)c2ccccc2)c1,3.3%
COc1cccc(CNC(=O)C(NS(=O)(=O)c2ccc3c(c2)CCN3C(C)=O)C(C)C)c1 (stereo unspecified),0.1%&-11.7%
N#C/C(=C\c1ccc(Cl)cc1)C(=O)NCC1CCCO1 (stereo unspecified),?
Cc1ccc(OCC(=O)N/N=C\c2cccs2)c([N+](=O)[O-])c1,3.1%
C[C@H](NC(=O)c1ccco1)C(=O)N1CCCC1,-1.5%
CC(C)(C)NC(=O)C(c1ccncc1)N(Cc1cccs1)C(=O)c1csnn1 (stereo unspecified),-1.7%
Cc1cc2ccccc2n1-c1ccc(C(=O)N2CCC(C(=O)NCc3ccc(Cl)cc3)CC2)s1,4.6%
CCCCN1C(=S)NC[C@@H]1C(C)CC (stereo partly specified),-17.5%
CCCCCn1cnc2sc(CC)cc2c1=O,-14.1%
O=C(NCc1ccc2c(c1)OCO2)C(=O)NCC1OCCN1S(=O)(=O)c1ccccc1 (stereo unspecified),-5.3%
CCC(CC)c1nnc(NC(=O)CS(=O)(=O)c2ccccc2)s1,?
CCOC(=O)C1(CCCc2ccccc2)CCN(C(=O)c2cc(C)nc(C)n2)CC1,1.2%
CC(C)(C)NC(=O)c1cccc(NC(=O)CSc2ccccc2)c1,9.8%
CCC(C)[C@@H]1NC(=O)N(CCCN2CCCC2=O)C1=O (stereo partly specified),-11.5%
Cc1ccc(NC(=O)CCC(=O)N2CCOCC2)nc1,?
Cc1ccc(C(=O)Cc2nc3ccccc3[nH]2)cc1,-29.7%
Cc1cc2c(NC(=O)Nc3ccc(C(C)(C)C)cc3)cccc2nn1,-6.5%
COc1ccc(N2C(=S)NC(C)(C)CC2(C)c2ccc(OC(C)=O)cc2OC(C)=O)cc1 (stereo unspecified),-9.6%
COc1ccc(C(=O)Nc2oc(-c3ccccc3)c(-c3ccccc3)c2C#N)cc1OC,4.3%
COc1ccc(S(=O)(=O)N2CCCCC2)cc1NC(=O)CCNC(=O)c1ccc(Cl)cc1,0.8%
OCCNCc1cc(Br)ccc1OCc1ccc(Cl)cc1,10.3%
COc1ccccc1NC(=S)N1CCN(Cc2ccc3c(c2)OCO3)CC1,-4.1%
COc1ccc(-c2nnc(NC(=O)c3ccc(F)cc3)o2)cc1,-6.6%
CCOc1ccc(N2C(=O)CC(NC3CCN(C(=O)c4ccc(F)cc4)CC3)C2=O)cc1 (stereo unspecified),9.0%
COc1cc(SSc2cc(OC)cc([N+](=O)[O-])c2N)c(N)c([N+](=O)[O-])c1,7.94µM*
Cc1c(CNC(=O)c2cnn3c2NC(c2ccc(Br)cc2)CC3C(F)(F)F)cnn1C (stereo unspecified),3.1%
O=C(NC1CCCCC1)c1c2c(nc3ccccc13)CCC2,13.6%

# VDR inh, entries above that show a hit
SMILES,VDR inh
COc1ccc([C@H]2CC(=O)C=C(/C=C/Cc3ccccc3)C2)cc1,79.4µM*
COc1cc(SSc2cc(OC)cc([N+](=O)[O-])c2N)c(N)c([N+](=O)[O-])c1,7.94µM*

# The results go on:
SMILES,VDR inh
O=C(CNC(=O)C1COc2ccccc2O1)Nc1ccc(F)c(F)c1 (stereo unspecified),-13.1%
COc1ccc(OC)c(S(=O)(=O)N2CCN3CCCC3C2)c1 (stereo unspecified),2.2%
Cc1cc(-c2ccc(S(=O)(=O)Nc3ccc(C#N)cc3)s2)on1,-8.0%
CCOC(=O)c1c(NC(=O)COc2cccc(C(F)(F)F)c2)sc2c1CCCCC2,?
CCn1c(=O)[nH]c2cc(C(=O)N3CCN(c4ccccc4)CC3)ccc2c1=O,5.7%
O=c1[nH]n(-c2cccc(Cl)c2)c2ncccc12,-10.4%
COc1ccc(/C=N/NC(=O)c2cc(C34CC5CC(CC(C5)C3)C4)[nH]n2)cc1OC,14.5%
